Source: PubChem BioAssay (several laboratories)
Insulin prom inh – TRM-6 insulin promoter activity inhibition. TRM-6 cells (human fetal islet line), insulin promoter-eGFP reporter, imaging; reporter expression induced with tamoxifen. inhibition, % at 2 µM. 130,000 compounds, 0.9% hits. AID 1273;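 active = inhibition above the mean plus 3 SD, with well images judged a real hit on visual review, cut at about 60% in these data, passing the limit was not always enough; inconclusive = inhibition over the cutoff but images rejected on review; inactive = inhibition not above the cutoff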
GALR2 agonist – activates the human galanin receptor 2. activation, %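 (tested at 5 µM)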. O43603. 140,000 compounds, 0.48% hits. AID 803. GALR2-expressing cells, agonist activation read-out;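 active = above mean plus 3 SD of all compounds, about 5% in these data, not always enough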;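 note: 0% = vehicle buffer wells and 100% = reference agonist at full effect; tested in CHO reporter cells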
RGS16-Gao – RGS16-Galphao interaction regulator (human) | bead-based flow cytometry RGS16-Galphao binding, fluorescence; actives lie on both sides | 220,000 compounds, 0.38% hits | binding response (% of control), % at 10 µM | O15492+P09471;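 active = below 25% or above 175%, edge rows of some plates excepted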;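 note: Galphao activated by GDP with aluminum fluoride before binding; 100% = wells without compound and 0% = beads without RGS; some results beyond the cut were filed as inactive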
HSV replic up – HSV replication enhancement | 220,000 compounds, 0.005% hits | HSV replication augmentation in cells, fold increase | maximum fold increase;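 active = peak rise of 1.5-fold or more in the series; inconclusive = self-fluorescent or not available for retest; tested in PC3 cells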;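 note: first round at 10 µM; read as green reporter fluorescence; hits show the peak of a series up to 25 µM; 1 = signal of infected wells without compound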
PKD1 kinase inh – inhibitors of human PKD1 kinase | PKD1 kinase fluorescence polarization assay | inhibition, %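 (about 10 µM by stock and volumes)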 | 200,000 compounds, 0.056% hits | Q15139;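 active = inhibition of 50% or more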;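 note: controls were vehicle for no effect and a reference inhibitor for full effect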
Target sequence (Q15139 whole entry, looked up): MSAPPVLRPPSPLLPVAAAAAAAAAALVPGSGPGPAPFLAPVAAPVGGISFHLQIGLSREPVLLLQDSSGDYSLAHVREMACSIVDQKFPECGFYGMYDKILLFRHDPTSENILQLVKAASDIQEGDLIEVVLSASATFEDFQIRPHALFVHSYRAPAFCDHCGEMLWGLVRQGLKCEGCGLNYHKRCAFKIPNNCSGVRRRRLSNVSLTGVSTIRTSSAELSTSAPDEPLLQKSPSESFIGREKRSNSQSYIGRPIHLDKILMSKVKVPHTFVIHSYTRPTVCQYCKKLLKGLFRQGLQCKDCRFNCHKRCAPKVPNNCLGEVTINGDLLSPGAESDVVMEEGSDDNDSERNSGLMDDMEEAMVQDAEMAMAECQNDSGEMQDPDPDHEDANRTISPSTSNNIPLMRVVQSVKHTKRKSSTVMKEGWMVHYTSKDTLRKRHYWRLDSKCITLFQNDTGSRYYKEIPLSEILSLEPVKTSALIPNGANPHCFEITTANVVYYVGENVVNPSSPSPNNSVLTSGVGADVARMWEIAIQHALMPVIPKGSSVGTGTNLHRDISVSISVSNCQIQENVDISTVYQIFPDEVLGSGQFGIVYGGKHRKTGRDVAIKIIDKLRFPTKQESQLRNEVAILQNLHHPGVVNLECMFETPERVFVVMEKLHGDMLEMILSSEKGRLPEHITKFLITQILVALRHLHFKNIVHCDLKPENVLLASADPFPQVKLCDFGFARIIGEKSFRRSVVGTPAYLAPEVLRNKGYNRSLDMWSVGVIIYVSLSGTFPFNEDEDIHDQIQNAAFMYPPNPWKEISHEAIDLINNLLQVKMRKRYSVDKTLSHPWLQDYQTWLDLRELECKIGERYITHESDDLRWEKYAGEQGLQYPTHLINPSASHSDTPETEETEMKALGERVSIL
Insulin prom inh cell count – second read-out of Insulin prom inh, no call of its own (marks repeat the call); normalized cell count, %; measured here: cell count, toxicity; reference of the scale not given here;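 cells exposed to compound for 48 h; stained nuclei by imaging scaled within each plate; lower means fewer cells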
HSV replic up primary fold – recorded beside HSV replic up, whose call it bears; fold increase; compound at 10 µM; measured here: primary screen fold increase 10 uM; tested in PC3 cells;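 GFP signal in the first replicate; 1 = infected wells without compound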
The depositor's hits bear a star; i = inactive; u = inconclusive; x = no result given.

compound	Insulin prom inh	Insulin prom inh cell count	GALR2 agonist	RGS16-Gao	HSV replic up	HSV replic up primary fold	PKD1 kinase inh
COc1cc(Cl)cc(C2NC(=O)NC(C)=C2C(C)=O)c1OCC(=O)O (centres undefined)	30.6	86.1	-3.2	103.2	i	1.24	0.6
Cc1ccc(Cl)cc1NC(=S)N(CCCN1CCOCC1)Cc1ccco1	x	x	x	100.7	i	0.87	13.9
CCCc1cc(=O)c2c(O)cccc2o1	x	x	x	102.0	i	1.27	x
Nc1nc2c(s1)CCc1c-2cnn1-c1ccccc1	-7.1	150.8	0.8	62.2	i	0.877	2.2
CCOc1ccc2ccccc2c1CNCCN1CCOCC1	-44.8	91.8	-3.3	107.2	i	0.97	-2.8
NS(=O)(=O)c1ccc(NC(=O)CSc2ccccc2)cc1	11.8	93.2	x	93.7	i	0.95	-1.4
Cc1cccc(OCC(=O)Nc2cc(C)ccc2O)c1	0.0	69.7	-1.6	99.4	i	0.91	-3.8
Cn1c(C(=O)Nc2ccccc2)cc2sccc21	32.4	140.1	-4.7	95.4	i	0.84	-7.9
O=C(/C=C/c1ccccc1[N+](=O)[O-])N1CCN(c2ccc(F)cc2)CC1	x	x	x	105.7	i	0.94	-3.1
CCOC(=O)N1CCC(N2C(=O)c3ccccc3C2Nc2ccc(C)cc2)CC1 (centres undefined)	x	x	-3.1	102.4	i	0.92	-3.6
COc1ccc(/C=C/C(=O)C2CC2)cc1COc1cccc(C)c1C	x	x	x	101.4	i	0.94	x
Cc1ccccc1-c1cc(C(=O)Nc2nc3c(s2)CCCC3)c2ccccc2n1	x	x	-2.1	180.1	i	1.06	-2.5
CCN(CC)P(=O)(C(NC(=O)OC)C(F)(F)C(F)(F)C(F)(F)C(F)F)N(CC)CC (centres undefined)	x	x	-1.5	115.5	i	0.69	-12.0
Nc1nc(F)cc(N2CCCCCC2)n1	-33.3	73.2	x	98.3	i	0.94	-3.5
CC(C)(C)c1cc(C(=O)N/N=C/c2ccc([N+](=O)[O-])s2)n[nH]1	x	x	x	101.1	i	0.84	x
O=C(CNC(=O)c1ccccc1Br)N/N=C/c1ccccc1O	x	x	x	101.2	i	0.74	4.2
CCOc1cccc(C2C(C(=O)c3ccco3)=C(O)C(=O)N2Cc2ccncc2)c1 (centres undefined)	58.3	134.9	-1.1	87.4	i	0.99	-9.0
O=C(CSc1ccccc1)Nc1nnc(/C=C/c2ccccc2)s1	x	x	1.1	102.6	i	0.92	-3.6
CCN(CC(=O)NC(=O)NCc1ccco1)Cc1nc2ccccc2c(=O)[nH]1	-180.0	103.4	6.2	90.9	i	1.01	-3.6
O=C(O)CC12CC3CC(C1)CC(n1ncc(NCc4ccc(F)cc4Cl)c(Cl)c1=O)(C3)C2	35.3	92.5	x	80.7	i	0.65	0.3

Part of the list above, reformatted:
> CCCc1cc(=O)c2c(O)cccc2o1
- Insulin prom inh: x
- Insulin prom inh cell count: x
- GALR2 agonist: x
- RGS16-Gao: 102.0
- HSV replic up: i
- HSV replic up primary fold: 1.27
- PKD1 kinase inh: x

> Nc1nc2c(s1)CCc1c-2cnn1-c1ccccc1
- Insulin prom inh: -7.1
- Insulin prom inh cell count: 150.8
- GALR2 agonist: 0.8
- RGS16-Gao: 62.2
- HSV replic up: i
- HSV replic up primary fold: 0.877
- PKD1 kinase inh: 2.2

> O=C(CSc1ccccc1)Nc1nnc(/C=C/c2ccccc2)s1
- Insulin prom inh: x
- Insulin prom inh cell count: x
- GALR2 agonist: 1.1
- RGS16-Gao: 102.6
- HSV replic up: i
- HSV replic up primary fold: 0.92
- PKD1 kinase inh: -3.6

> Cc1ccc(Cl)cc1NC(=S)N(CCCN1CCOCC1)Cc1ccco1
- Insulin prom inh: x
- Insulin prom inh cell count: x
- GALR2 agonist: x
- RGS16-Gao: 100.7
- HSV replic up: i
- HSV replic up primary fold: 0.87
- PKD1 kinase inh: 13.9

A few values from the results shown:
Entry of `O=C(/C=C/c1ccccc1[N+](=O)[O-])N1CCN(c2ccc(F)cc2)CC1` under RGS16-Gao: 105.7
Entry of `CCCc1cc(=O)c2c(O)cccc2o1` under RGS16-Gao: 102.0
Entry of `CCOc1ccc2ccccc2c1CNCCN1CCOCC1` under PKD1 kinase inh: -2.8
Entry of `NS(=O)(=O)c1ccc(NC(=O)CSc2ccccc2)cc1` under HSV replic up primary fold: 0.95

(listing goes on)
compound	Insulin prom inh	Insulin prom inh cell count	GALR2 agonist	RGS16-Gao	HSV replic up	HSV replic up primary fold	PKD1 kinase inh
O=C(CS(=O)(=O)c1ccccc1)NC1CCCCC1	x	x	x	97.0	i	1.02	3.5
CCC(=O)Nc1ccccc1C(=O)N1CCOCC1	22.8	68.9	-0.3	21.9	i	0.86	6.5
COc1cccc2cc(C(=O)C3=C(O)C(=O)N(CCCN4CCOCC4)C3c3ccncc3)oc12 (centres undefined)	10.8	83.6	-2.1	x	x	x	-3.5
CCN(CC)CCOC(=O)c1ccc2c(c1)OCCO2	45.2	113.4	-1.9	102.6	i	0.83	-5.0
Cc1nn(CC(=O)Nc2cccc(S(N)(=O)=O)c2)c(C)c1[N+](=O)[O-]	7.4	105.0	-0.2	107.8	i	1	-5.4
O=C(NCC1COc2ccccc2O1)c1ccc(NC(=O)C(c2ccccc2)c2ccccc2)cc1 (centres undefined)	0.0	84.3	-1.5	102.1	i	0.83	-3.6
CC12CCC(C/C1=N\OC(=O)c1ccc(F)cc1)C2(C)C (centres undefined)	-25.0	119.2	-1.1	105.1	i	0.81	-8.9
O=C(N/N=C/c1ccccc1)c1cc(-c2ccc3c(c2)OCO3)n[nH]1	-53.3	44.4	-1.9	79.8	i	0.68	0.7
COc1cc(NS(=O)(=O)N2CCCC2)cc(OC)c1OC	-53.3	46.8	-3.7	99.1	i	0.94	-12.5
Cc1ccc(/C=C(\NC(=O)c2ccc(C)cc2)C(=O)NCCCn2ccnc2)cc1	38.9	163.5	x	107.2	i	0.89	-3.9
CS(=O)(=O)N(Cc1ccccc1)c1ccc(C(=O)N2CCOCC2)cc1	-130.8	159.2	-2.6	119.5	i	1.03	-4.3
COC(=O)C1=C(C)N(c2ccc(C)c(C)c2)/C(=C/c2ccco2)C1=O	x	x	x	101.8	i	0.79	-2.3
CCCCN(CC)C(=O)c1ccc2c(c1)OCO2	10.5	70.4	-0.8	108.1	i	1.07	-18.9
Cn1c(=NCC(O)COc2ccccc2)sc2ccccc21 (centres undefined)	38.9	117.8	0.3	96.8	i	0.97	-12.6
O=C(NCC(=O)N(c1ccccc1)C(C(=O)NC1CCCC1)c1cccnc1)c1ccco1 (centres undefined)	-9.3	27.0	1.1	99.5	i	0.98	-3.7
CC1(C)Cc2c(cnn2-c2ccccc2)C(=O)/C1=N\NC(=O)c1ccccc1	-40.0	81.3	-1.8	91.6	i	0.91	2.3
CC(C)Nc1nc2nonc2nc1Nc1ccccc1	x	x	x	111.3	i	1.11	x
Cc1ccc(O)c(C(CC(=O)NC(C)C)c2ccccc2)c1 (centres undefined)	-17.6	80.0	x	102.3	i	1.08	14.3
CO/N=C/C1C(=O)NN=C1c1ccccc1 (centres undefined)	x	x	x	100.6	i	0.96	-1.2
COc1ccc(/C=N\NC(=O)/C(=C\Nc2nccc(C)n2)NC(=O)c2ccccc2)cc1	-60.7	97.2	0.0	104.2	i	0.89	-5.6
COc1ccc(-c2ocnc2C(=O)Nc2ccccc2N2CCCCC2)cc1	x	x	-0.3	112.9	i	0.91	-6.2
Cc1ccc(/C=N/N2C(=O)C3C(C2=O)C2C=CC3C23CC3)o1 (centres undefined)	4.3	77.5	0.2	85.8	i	0.97	-9.0
COc1ccc(Cl)cc1NC(=S)N1CCN(c2ncccn2)CC1	30.8	104.7	x	102.1	i	0.97	-0.9
Cc1onc(-c2ccccc2Cl)c1C(=O)N1CCN=C1SCc1cccnc1	x	x	-2.7	106.8	i	1	-8.8
COc1ccc(/C=N\NC(=O)COc2ccc(C(C)(C)C)cc2)cc1Cn1nc(C)cc1C	20.7	111.2	0.2	101.9	i	0.49	-14.6
CCc1nc2sc3c(=O)[nH]cnc3c2c2c1CSC(C)(C)C2	x	x	x	98.7	i	1	x
CCOc1ccc(S(=O)(=O)Nc2cc(S(=O)(=O)N(CC)CC)ccc2N2CCCC2)cc1	-11.5	67.9	-1.8	101.2	i	0.94	-9.7
O=C(c1ccc(CS(=O)(=O)c2ccccc2)o1)N1CCOCC1	x	x	-4.0	101.8	i	1.04	2.9
COC(=O)c1[nH]c(=O)c2ccccc2c1O	36.8	63.3	-2.7	105.1	i	1.15	-3.2
O=C(CCc1nc(-c2ccccc2)no1)Nc1cc(C(F)(F)F)ccc1Cl	5.3	92.7	-2.1	100.1	i	1.01	0.2
O=C(OCc1nc2ccccc2s1)C1CCN(S(=O)(=O)c2cccs2)CC1	-21.4	116.4	-5.3	95.9	i	0.957	-9.3
CCOP(=O)(O)c1ccccc1OCCCCCOc1ccccc1P(=O)(O)OCC	-2.7	76.6	0.5	94.5	i	0.75	-1.0
O=C(COC(=O)c1cc(Cl)nc2ccccc12)c1ccc(Cl)cc1	25.9	45.6	0.0	67.0	i	0.99	-6.9
CN(C)CCC#CC(O)(c1ccccc1)c1ccccc1	6.9	121.0	0.0	106.3	i	0.86	-9.7
COC(=O)c1cccc(Cn2c(Cl)c(/C=N/NC(=O)c3ccccc3Cl)sc2=O)c1	24.3	102.1	-1.7	99.5	i	0.7	-4.2
Cc1ccc(N2C(=O)CC(NNC(=O)Cc3ccc(F)cc3)C2=O)cc1Cl (centres undefined)	x	x	x	102.2	i	1.04	x
O=C(/C(=N\O)n1cncn1)c1ccc(Cl)cc1Cl	x	x	x	101.1	i	1.03	-1.7
COC(=O)c1cc(Cl)c(NC(=O)c2ccc(C(C)(C)C)cc2)cc1OC	0.0	100.0	-1.9	99.2	i	0.76	-1.3
Cc1ccc(-n2c(-c3nn(C)cc3Cl)n[nH]c2=S)cc1	x	x	-1.2	100.9	i	1.04	-9.8
O=C(CSCCO)Nc1ccc(C2CCCCC2)cc1	5.3	89.6	-1.5	92.3	i	0.7	0.5
Cc1ccc(NC(=O)CNCc2ccccc2)cc1Br	-9.1	112.5	x	109.2	i	0.89	-6.3
CCCCN1CNC(=S)N(CCc2ccccc2)C1	x	x	0.1	112.8	i	0.99	-8.2
C/C(=N\NC(=O)C(N)=O)c1ccc2c(c1)OCCO2	x	x	x	104.6	i	0.99	-2.5
CC1Oc2ccccc2N(CC(=O)NCC2CCCO2)C1=O (centres undefined)	34.9	93.8	-2.9	104.4	i	1.09	-3.4
CN(c1ccccc1)S(=O)(=O)c1ccc(C(=O)Nc2nccs2)cc1	x	x	-3.5	98.4	i	0.78	-5.9
CCc1ccc(C2CC(=O)N3CN(c4ccccc4)CSC3=C2C#N)cc1 (centres undefined)	x	x	-0.3	86.9	i	1.01	-5.7
Clc1ncccc1-c1nnn(-c2ccccc2Br)n1	x	x	x	95.5	i	0.87	-5.0
CCOC(=O)c1nn(-c2ccccc2F)c2nc(-c3ccco3)c(C#N)c(=O)n12	0.0	120.7	0.6	111.3	i	0.98	-3.8
CCOC(=O)c1ccc(NC(=O)C2(c3ccccc3)CCOCC2)cc1	67.6	158.5	-1.8	102.3	i	1.08	-5.4
CCC(CC)NC(=O)Cc1ccccc1[N+](=O)[O-]	7.4	64.0	-1.3	104.7	i	1.17	-3.1
CCCCCCN=C(C)c1ccccc1O	x	x	x	101.4	i	1.07	x
O=C(CCC1CCCN(C(=O)c2cncs2)C1)NCc1ccc(F)c(F)c1 (centres undefined)	-39.1	69.9	x	119.1	i	0.97	0.4
Cc1ccc(S(=O)(=O)N/N=C/c2ccc(OCC(=O)NC(C)C)cc2)cc1	-30.0	92.8	-0.9	x	i	0.76	-17.1
O=C(Cc1ccc(F)cc1)Oc1ccc(C(=S)N2CCCC2)cc1	17.2	110.9	0.3	100.0	i	1.02	0.6
COc1ccc(-n2c(Cc3cccn3C)nnc2SCC(=O)NCc2ccc(F)cc2)cc1	x	x	-0.7	96.5	i	1.19	-5.7
Oc1[nH]c(=S)sc1/C=C1\C(c2ccccc2)=Nc2ccccc21	x	x	-1.1	101.8	u	x	5.9
Cc1ccc(NC(=O)c2ccccc2)cc1OC(=O)c1ccccc1	-8.0	108.5	-1.2	101.2	i	0.99	-8.3
CC(C)N1CCN(Cc2cccs2)CC1CCO (centres undefined)	x	x	x	100.5	i	1.11	-2.9
CCOC(=O)c1sc2cc([N+](=O)[O-])cc(SCCO)c2c1N	-50.0	134.8	-0.1	80.2	i	1.26	-7.4
CCN(CC)c1ccc(N2C(=O)/C(=C/c3cccnc3)SC2=S)cc1	-9.7	111.1	-1.4	103.4	i	0.76	11.9
